Screens deposited in PubChem by National Center for Advancing Translational Sciences (NCATS).
Rango complex inh – qHTS Assay for Inhibitors of Rango (Ran-regulated importin-beta cargo) - Importin beta complex formation. Importin subunit beta-1 (Homo sapiens), Q14974. Rango CFP/YFP FRET sensor + importin beta, 45 min. Potency, µM (top dose mostly 92.2 µM), inactives show top-dose inhibition of complex formation. 340,000 tested, 0.031% active. AID 540263, 2011; active = rising FRET ratio curve, often small or poorly fitted; inconclusive = mostly compound fluorescence or quenching in the first reads; inactive = flat curves in all reads;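 note: potency is the fitted concentration of half-maximal effect; 0% = DMSO wells and 100% = buffer wells lacking importin beta; nearly all actives have a fitted effect of over 15% in size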
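FRET biosensor Rango (snurportin 1 IBB between N-terminal EYFP and C-terminal Cerulean), 50 nM in PBS/1 mM DTT/0.02% Tween-20/0.1% BSA, preincubated 5 min RT with compound; 0.125 microM importin beta added, 45 min RT, CFP/YFP FRET ratio read.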
GLA inh pH 4.5 – qHTS Assay for Inhibitors of Human alpha-Galactosidase at pH 4.5; 230,000 tested, under 10 active; AID 1467, 2008; purified enzyme, 4-MU-alpha-Gal fluorescence, pH 4.5; activity change, negative = inhibition, % at 105 µM; inconclusive = small, poorly fitted or top-dose-only inhibition, or a rising curve; inactive = flat fitted curve, though single readings scatter; no compound was filed as active;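 note: 0% = full activity with enzyme and -100% = basal without enzyme; dose as in the result columns while the protocol names 77 µM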
Target sequence (P06280 whole entry, looked up): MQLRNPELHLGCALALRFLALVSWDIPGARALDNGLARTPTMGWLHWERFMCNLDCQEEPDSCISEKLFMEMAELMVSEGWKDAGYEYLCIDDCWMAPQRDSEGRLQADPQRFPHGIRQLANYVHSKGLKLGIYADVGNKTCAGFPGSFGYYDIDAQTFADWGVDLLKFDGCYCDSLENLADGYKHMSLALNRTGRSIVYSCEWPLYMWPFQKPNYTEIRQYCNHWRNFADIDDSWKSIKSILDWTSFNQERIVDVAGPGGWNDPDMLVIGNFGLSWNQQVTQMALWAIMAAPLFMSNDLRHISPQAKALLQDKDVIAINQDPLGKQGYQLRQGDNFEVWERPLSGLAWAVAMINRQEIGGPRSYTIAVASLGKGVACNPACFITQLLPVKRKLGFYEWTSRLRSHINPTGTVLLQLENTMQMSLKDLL
miR-21 FLuc – qHTS Assay for Modulators of miRNAs and/orActivators of miR-21. AID 2288, 2010. HeLa miR-21 FLuc reporter, luciferase, 48 h. 340,000 tested, under 10 active. Potency, µM (highest dose often 38.3 µM), for inactives: top-dose reporter change, positive = more light; active = well fitted rising curve with a large enough effect; inconclusive = small, poorly fitted or top-dose-only effect; inactive = no such curve, though single readings can be large or run the other way;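 note: % of control where 0% means no effect; miR-21 action dims this reporter so a rising signal means less miR-21 action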
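HeLa cells endogenously expressing miR-21, stably carrying CMV-driven firefly luciferase with a downstream miR-21 binding site, 2000 cells/well. Titrations up to approximately 40 uM, 48 hours; luciferase luminescence read.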
Rango release inh – qHTS Assay for Inhibitors of RanGTP induced Rango (Ran-regulated importin-beta cargo) - Importin beta complex dissociation | Snurportin-1 (Homo sapiens) + GTP-binding nuclear protein Ran (Homo sapiens) + Importin … | Biochemical FRET Rango-importin beta, RanGTP-induced dissociation | Potency, µM (titrated, usually from 46.1 µM), for the others: at the top dose activity change, negative = inhibition | 340,000 tested, 0.071% active | AID 540253, 2011; active means falling FRET ratio curve, often poorly fitted, with flat reads before Ran was added; inconclusive means other falling curves, or compound fluorescence or quenching; inactive means flat or rising ratio curve;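 note: potency is the fitted concentration of half-maximal effect; % of control where 0% means no effect; nearly all actives have a fitted effect of over 45% in size; -100% = wells without RanGTP and RCC1; the record marks most hits as doubtful in a second field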
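Rango FRET biosensor (snurportin-1 IBB flanked by N-terminal EYFP and C-terminal CFP10) at 0.1 uM, with 0.25 uM importin beta in PBS, 1mM DTT, 0.02% Tween-20, 0.1% BSA. 0.6 uM Ran, 2mM GTP and 0.2 uM RCC1 were then added for 45 min at room temperature. Inhibition read as loss of FRET rise.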
Active calls of the source: *; u = inconclusive; x = not tested or not shown; & = joins results of further samples; [ ] = another dose, or the depositor's remark. These rows are one share of the data; count on the stated rates, not on these rows.

Every second line gives: Rango complex inh | GLA inh pH 4.5 | miR-21 FLuc | Rango release inh
COc1ccc(-n2nc(C(=O)NCC(=O)NCc3ccco3)c3ccccc3c2=O)c(OC)c1
  -4.2% | 5 | -4% | 4%
O=S(=O)(NCCC1=CCCCC1)c1ccc(OC(F)(F)F)cc1
  2.2% | x | x | 0%
CCOc1ccc(NC(=O)/C=C/c2ccc(OC)cc2)c([N+](=O)[O-])c1
  -4.1% | -8 | -5% | -6%
Cc1ccc(C(=O)Oc2cc(N)n(S(=O)(=O)c3ccc(C)cc3)n2)cc1
  -0.4% | 4 | -2% | -16%
O=S(=O)(N1CCCCC1)N1CCN(CC(O)COc2ccc3cc(Br)ccc3c2)CC1 (stereo not drawn)
  2.1% | -4 | -1% | -2%
CCc1nc2sc3ccccc3c(=O)c2c(=O)n1Cc1ccco1
  u | 2 | -9% | -15%
CC(C)(C)OC(=O)C[C@@H]1C/C=C\C[C@H](CC(=O)N(CCO)Cc2ccccc2)C(=O)N2CCC[C@H]2COC1=O
  -4.3% | x | x | u
O=C1CC(N2CCC(Cc3ccccc3)CC2)C(=O)N1CCc1ccccc1 (stereo not drawn)
  -0.3% | -21 | -2% | -4%
CCC(=O)c1ccc(OCC(O)CNCCc2ccc(Cl)cc2)cc1 (stereo not drawn)
  -1.1% | x | 1% | 3%
O=C(NCc1ccc(F)cc1)C1CCN(S(=O)(=O)c2cccc3nonc23)CC1
  -1.7% | x | -3% | 33%
COc1ccc(N2CCCn3c2nc2c3c(=O)n(CCN3CCOCC3)c(=O)n2C)cc1
  0.1% | 0 | -7% | -6%
C=CCOc1c(CNc2cccc(C(=O)O)c2)cccc1OCC
  -1.9% | 0 | -14% | -9%
Cn1c(=O)c(C(=O)N2CCc3ccccc32)cc2cccnc21
  -2.7% | x | x | 22%
CSc1nc2ccccc2cc1/C=C(\C#N)c1ccccc1
  -2.2% | -3 | 16% | 1%
CCOc1ccccc1N1CC(C(=O)N2CCOCC2)CC1=O (stereo not drawn)
  -0.3% | x | 1% | 0%
COc1cccc(C(=O)Nc2ccc(C(F)(F)F)n(C)c2=O)c1
  0.4% | -9 | -75% | 8%
O=C(COC(=O)CNC(=O)c1ccccc1F)Nc1cccc(S(=O)(=O)N2CCCCCC2)c1
  3.5% | u | -1% | 15%
CC(C)(C)NC(=O)C(c1cccs1)N(Cc1cccs1)C(=O)c1ccc(CN2CCOCC2)o1 (stereo not drawn)
  -1.7% | -6 | -4% | 0%
CC1=CSC2=NC(=O)/C(=C/c3cccc(OC(=O)c4ccco4)c3)C(=N)N12
  u | -1 | -1% | u
CCn1c(CCCNC(=O)c2ccc(F)cc2)nc2ccccc21
  -2.6% | -13 | -9% | 0%
O=C(CNC(=O)c1cccc(Cl)c1)NCCCSc1ccccc1
  6.4% | x | x | 18%
CC(C)(C)n1ncc2c(=O)n(CC(=O)NCc3ccco3)cnc21
  -3.5% | -6 | -5% | 5%
O=C(NN=C1C2CC3CC(C2)CC1C3)c1cc(Cl)ccc1O
  -5.8% | -1 | -20% | -8%
CCCc1cc(C(=O)Nc2cnn(Cc3ccc(F)cc3)c2)no1
  -0.3% | -12 | -7% | -16%
O=C(NCCN1CCOCC1)c1ccccc1Oc1ccccc1
  -3.3% | -7 | -5% | -2%
CN(C)S(=O)(=O)N1CCN(c2ccc([N+](=O)[O-])c(N3CCOCC3)c2)CC1
  0.7% | -25 | 1% | 0%
CCCCC(CC)CNC(=O)Cn1c(=O)[nH]c2ccsc2c1=O (stereo not drawn)
  -0.3% | -8[21.1 µM] | 0% | 15%
C/C(=N/NC(=O)C1CCN(S(=O)(=O)c2ccc(C)cc2)CC1)c1cccc([N+](=O)[O-])c1
  4.8% | -2 | -10% | 1%
Cc1ccc(C(=O)OCC(=O)NCc2ccco2)cc1C
  4.0% | x | x | -9%
O=C(c1cccc(F)c1)N1CCC(O)(c2cccnc2)CC1
  -2.7% | 4 | 0% | -4%

An excerpt from above in order of formula weight, ascending.
Every second line gives: Rango complex inh | GLA inh pH 4.5 | miR-21 FLuc | Rango release inh
Cc1ccc(C(=O)OCC(=O)NCc2ccco2)cc1C
  4.0% | x | x | -9%
O=C1CC(N2CCC(Cc3ccccc3)CC2)C(=O)N1CCc1ccccc1 (stereo not drawn)
  -0.3% | -21 | -2% | -4%
COc1ccc(N2CCCn3c2nc2c3c(=O)n(CCN3CCOCC3)c(=O)n2C)cc1
  0.1% | 0 | -7% | -6%

(listing goes on)
Every second line gives: Rango complex inh | GLA inh pH 4.5 | miR-21 FLuc | Rango release inh
CCCCn1c(SCC(=O)c2c(N)n(C3CC3)c(=O)[nH]c2=O)nc2cc(S(N)(=O)=O)ccc21
  -0.1% | x | x | 8%
COc1ccnc(Oc2ccc(F)cc2)c1C#N
  1.5% | 1 | -15% | -2%
CCc1nc2ccccc2c(C(=O)OCc2nc3ccccc3c(=O)[nH]2)c1C
  0.0% | x | x | 9%
CCn1c(SCc2ccc(F)cc2)nc2ccccc2c1=O
  -2.2% | x | -14% | 9%
Cc1cc(C)c2c(N)c(C(=O)c3ccc(Cl)cc3)sc2n1
  u | 4 | -30% | u
COC(=O)c1ccc(CSc2nnc(Nc3cccc(OC)c3)s2)o1
  -0.4% | 5 | -12% | -6%
CCOC(=O)c1cc2c(=O)n3cccc(C)c3nc2n(Cc2ccco2)c1=NC(=O)c1cccnc1
  u | 1 | -16% | u
N#CC1=C(N)OC2=C(CC/C2=C\c2ccc(F)cc2)C1c1ccc(F)cc1 (stereo not drawn)
  x | 2 | -9% | x
COc1ccc(C(=O)OCc2cc(=O)n3ccsc3n2)cc1F
  -0.6% | x | x | 0%
COc1cc(NC(=O)C2CCCO2)c(OC)cc1NC(=O)c1ccccc1 (stereo not drawn)
  -4.3% | -1 | -4% | -9%
Cc1ccc(NS(=O)(=O)c2cccc(C(=O)N3CCCCC3)c2)cc1
  -0.1% | x | x | 0%
CCC(=O)c1ccc(OCC(=O)O)cc1
  1.9% | -3 | 1% | 3%
CNc1nc(NCc2ccccc2)nc(N)c1[N+](=O)[O-]
  2.7% | x | -17% | 7%
CC1CCN(C(=O)c2[nH]cnc2C(=O)NCC(=O)OCc2ccccc2)CC1
  6.1% | x | 0% | 9%
CCN(C[C@H]1N[C@@](Cc2ccccc2)(C(=O)OC)[C@H]2C(=O)N(Cc3ccccc3)C(=O)[C@@H]12)C(=O)NC(C)C
  -0.2% | x | x | -4%
CCOCCc1nnc(NC(=O)CN2C(=O)c3ccccc3C2=O)s1
  u | -6 | 0% | 14%
COc1ccccc1NC(=O)CN(Cc1ccco1)C(=O)c1ccc(=O)[nH]c1
  -0.6% | -3 | -3% | -2%
O=S(=O)(NCC1CCCO1)c1ccc(Br)s1 (stereo not drawn)
  0.2% | -5 | -2% | 1%
NC(=O)NCc1cccs1
  0.0% | -14 | 3% | 4%
CCOc1ccc(C(=O)CN2CCN(S(=O)(=O)c3ccc(OC)cc3)CC2)cc1
  0.5% | 1 | -3% | -8%
Cc1ccc(-n2cc[nH]c2=S)c(C)c1
  -1.9% | 1 | 2% | 27%
Cc1cc(=O)oc2cc(NC(=O)c3ccnn3C)ccc12
  -3.0% | x | -23% | -2%
O=C(CSc1nnc(-c2ccccc2)c2ccccc12)NCC1CCCO1 (stereo not drawn)
  x | 3 | 3% | x
O=C(O)COc1ccccc1/C=C1\SC(=S)N(NC(=O)c2ccccc2O)C1=O
  3.9% | x | x | -5%
CCc1cccc(NS(=O)(=O)c2ccc3c(c2)oc(=O)n3C)c1
  3.1% | 13 | 9% | -8%
O=C(NN1C(=O)C2C3c4ccccc4C(c4ccccc43)[C@@H]2C1=O)c1ccccc1 (stereo partly drawn)
  1.5% | -5 | -7% | 27%
COc1ccc(CC(=O)NC2CC2)cc1OC
  -1.8% | x | -2% | 0%
CC(C)(C)NC(=O)C(c1ccco1)N(C(=O)Cn1nnc(-c2ccc(F)cc2)n1)c1cccc(F)c1 (stereo not drawn)
  3.2% | u | -3% | -13%
Cc1cc2ccccn2c1C(=O)Nc1ccccc1
  -0.3% | 2 | -53% | 1%
C=CCN1C=CC(=O)CC1
  0.3% | 6 | 0% | 2%
NC(=O)c1cc(S(=O)(=O)NCc2ccc(Br)cc2)cs1
  -0.2% | x | 5%&3% | 32%
COc1ccc(C(c2nnnn2CC2CCCO2)N2CCN(c3ccccc3)CC2)cc1 (stereo not drawn)
  3.8% | -2 | -2% | 7%
O=[N+]([O-])c1cc(S(=O)(=O)N2CCCC2)ccc1N/N=C/c1cccs1
  -3.1% | 5 | -8% | 0%
Cc1cc(=O)oc(C)c1C(=O)Nc1ccc2nsnc2c1
  0.6% | 2 | 0% | u
CN(C)CCNc1nc(-c2ccccc2)nnc1C(F)(F)F
  2.0% | 5 | -3% | -19%
Cc1cc(C(=O)Nc2sc3c(c2C#N)CCCC3)no1
  1.6% | -8 | 12% | 0%
CCSc1nnc(NC(=O)CSc2nnc(CNC(=O)c3cc(OC)c(OC)c(OC)c3)o2)s1
  -1.2% | 2 | -11% | -6%
O=C1CSC(c2cccc([N+](=O)[O-])c2)N1c1ccccc1F (stereo not drawn)
  2.6% | 0[21.1 µM] | 4% | 11%
O=C(CCCc1ccccc1)NCc1cccnc1
  5.2% | -3 | -17% | -17%
COc1ccc(NC(=O)c2ccc3nc(-c4ccccc4)c(-c4ccccc4)nc3c2)c(OC)c1
  3.8% | 3 | -1% | 19%
O=C1CNC(=S)N1Cc1ccccc1Cl
  -0.9% | x | 2% | -2%
O=C(c1cccs1)N1CC=C(c2ccccc2)CC1
  1.3% | x | x | -12%
CC(C)(C)C(=O)NC(=S)Nc1ccccc1N1CCCC1
  -2.1% | 8 | -12% | 0%
Cn1ncc(Cl)c1C(=O)Nc1ccc(CN2CCCCC2)cc1
  0.1% | x | -7% | 5%
Cc1ccc(S(=O)(=O)N2[C@@H](c3ccc(Cl)c(Cl)c3)C(C(=O)O)=C[C@H]2C(C)(C)C)cc1
  -3.8% | x | x | -8%
Cn1cc(Cl)c(C(=O)Nc2nc3ccc([N+](=O)[O-])cc3s2)n1
  u | 5 | -9% | u
Cc1cc(C)n2c(=O)c3ccc(Cl)cc3nc2c1C#N
  u | 1 | 2% | u
CSCCNC(=O)c1ccc2nc(C3CCCCC3)oc2c1
  -7.7% | x | -33% | 7%
CN(C(=O)c1ccno1)c1nnc(-c2cnccn2)s1
  -4.7% | 3 | -9% | -2%
Cc1ccc2c(CN3CCN(S(=O)(=O)c4ccc5c(c4)OCCO5)CC3)cc(=O)oc2c1C
  0.1% | -4 | 0% | -1%
CCCc1cc(=O)oc2c3c(c4c(c12)OC(C)(C)C=C4)OC(C)C(C)C3O (stereo not drawn)
  -1.4% | -16 | 22% | -8%
O=C(OC1CCCCC1)c1ccc(NC(=O)c2ccco2)cc1
  1.0% | -3 | -25% | 0%
CCOC(=O)c1sc2nccc(OC)c2c1N=CNOC
  4.2% | 6 | -1% | -13%
Cc1ccc(CSc2nnc(SCC(=O)N/N=C/C=C/c3ccco3)s2)cc1
  -3.6% | 0 | 19% | -13%
NNC(=O)c1nnn(-c2nonc2N)c1CN1CCCC1
  -9.0% | x | 0% | 2%
Cc1onc(C(=O)Nc2ccccc2C(F)(F)F)c1[N+](=O)[O-]
  3.0% | x | 1% | 6%
O=c1[nH]c(N2CCCCC2)nc2c1CCCC2
  0.6% | 1 | -4% | 1%
COc1ccccc1N1C(=O)c2cccc3c(Cl)ccc(c23)C1=O
  0.1% | x | 3% | -10%
Cc1nc2ccccc2c2c(N)c3ccccc3n12
  u | 8 | 5% | u
CC(=O)c1ccc(OCC(=O)c2cc(C)n(-c3ccc4c(c3)OCO4)c2C)cc1
  -8.6% | -3 | 2% | -4%
Nc1ccnn1-c1ccccc1
  1.3% | -8 | -5% | 2%
CC(=O)c1ccc(OCc2cc(C(=O)N3CC4C[C@@H]5CC3C[C@H](C4)C5)no2)cc1
  -5.6% | x | -33% | 0%
